FGF22 binding – binders of human FGF22 protein, primary screen, FGF22 synaptogenesis inhibitor project, biophysical, thermal shift, single point; calls only at 9.99 µM; Fibroblast growth factor 22 (Homo sapiens), Q9HCT0; recombinant FGF22 thermal shift, SYPRO orange fluorescence; percent of sucrose octasulfate shift, DMSO zero; 340,000 compounds, 1.5% hits;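 active = melting point raised past a set limit in the mean and every replicate; three in four hits are not shown here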
Target sequence (Q9HCT0 whole entry, looked up): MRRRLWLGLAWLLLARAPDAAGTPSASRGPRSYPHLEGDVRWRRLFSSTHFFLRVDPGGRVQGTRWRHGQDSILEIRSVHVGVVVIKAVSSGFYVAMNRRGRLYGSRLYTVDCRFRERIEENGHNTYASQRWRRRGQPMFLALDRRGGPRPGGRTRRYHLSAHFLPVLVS
Calls only; i = inactive; + = active, no number. An excerpt; count on the stated rates, not on these rows.

SMILES | FGF22 binding
C[C@@H]1CN([C@@H](C)CO)C(=O)Cc2cc(NC(=O)Cn3cnnn3)ccc2O[C@@H]1CN(C)Cc1ccc(C(=O)O)cc1 | i
C[C@@H]1CCCCO[C@H](CN(C)S(=O)(=O)c2cn(C)cn2)[C@@H](C)CN([C@H](C)CO)C(=O)c2cc(NC(=O)CCC(F)(F)F)ccc2O1 | i
O=C(O)C[C@H]1CC[C@H](NC(=O)Nc2cc(F)ccc2F)[C@H](CO)O1 | i
CC(C)NC(=O)Nc1ccc2c(c1)CC(=O)N([C@@H](C)CO)C[C@H](C)[C@H](CN(C)C(=O)Nc1ccccc1)O2 | i
O=C(C[C@@H]1CC[C@H](NS(=O)(=O)c2ccc(F)cc2)[C@H](CO)O1)NCc1ccncn1 | i
CO[C@H]1CN(C)C(=O)c2cc(NC(=O)Nc3ccc(F)cc3)ccc2OC[C@H](C)NC[C@H]1C | i
C[C@@H]1CN([C@@H](C)CO)C(=O)c2cccc(NS(=O)(=O)c3ccc(Cl)cc3)c2O[C@H]1CN(C)Cc1ccc(Cl)c(Cl)c1 | i
N#C[C@@H]1[C@@H](c2ccc(-c3cccc(F)c3)cc2)[C@H](CO)N1C(=O)NC1CCCC1 | i
Cc1ccc(S(=O)(=O)NCC[C@H]2CC[C@@H](NC(=O)C3CCOCC3)[C@H](CO)O2)cc1 | i
Cc1noc(C)c1NC(=O)Nc1ccc2c(c1)C(=O)N([C@H](C)CO)C[C@H](C)[C@H](CN(C)Cc1ccc(C(=O)O)cc1)OCCCC[C@@H](C)O2 | i
CC(C)C#Cc1cnc2c(c1)C(=O)N([C@@H](C)CO)C[C@H](C)[C@@H](CN(C)C(=O)c1ccccc1F)O2 | i
O=C(C[C@@H]1CC[C@@H]2[C@H](COC[C@@H](O)CN2C(=O)c2ccccc2)O1)NCCCN1CCOCC1 | i
C[C@@H]1CN([C@H](C)CO)S(=O)(=O)c2ccc(C#CC3CC3)cc2O[C@H]1CN(C)C(=O)c1ccccc1 | i
O=C(Cc1ccc(NC(=O)C2CCCN(C(=O)c3ccccc3)C2)cc1)Nc1cccc(C(=O)N2CCCC2)c1 (stereo not drawn) | i
CC(C)CC#Cc1ccc2c(c1)O[C@H](CN(C)Cc1ccncc1)[C@@H](C)CN([C@H](C)CO)S2(=O)=O | i
CCCC#Cc1cnc2c(c1)C(=O)N([C@H](C)CO)C[C@@H](C)[C@H](CN(C)C(=O)C1CCOCC1)O2 | i
O=C(Nc1ccc(Cl)c(Cl)c1)N[C@H]1CC[C@H](CCn2cc(C3CC3)nn2)O[C@@H]1CO | i
C[C@H]1CN([C@@H](C)CO)C(=O)c2ccccc2-c2ccccc2CO[C@@H]1CN(C)S(=O)(=O)c1cccc(C#N)c1 | i
C[C@H]1CN([C@@H](C)CO)C(=O)CCCn2cc(nn2)CO[C@@H]1CN(C)Cc1cccc(C(=O)O)c1 | +
COc1ccc2c3c(n(C)c2c1)[C@@H](CO)N(C(=O)NC(C)C)CC31CN(Cc2nccs2)C1 | i

3 structures already listed, ordered by SMILES length, low to high.
SMILES | FGF22 binding
CCCC#Cc1cnc2c(c1)C(=O)N([C@H](C)CO)C[C@@H](C)[C@H](CN(C)C(=O)C1CCOCC1)O2 | i
CC(C)CC#Cc1ccc2c(c1)O[C@H](CN(C)Cc1ccncc1)[C@@H](C)CN([C@H](C)CO)S2(=O)=O | i
CC(C)C#Cc1cnc2c(c1)C(=O)N([C@@H](C)CO)C[C@H](C)[C@@H](CN(C)C(=O)c1ccccc1F)O2 | i

(more compounds)
SMILES | FGF22 binding
O=C(Nc1ccc(F)cc1)N[C@@H]1CC[C@@H](CCNS(=O)(=O)c2cccc(Cl)c2)O[C@@H]1CO | i
COc1ccccc1-c1ccc2c(c1)O[C@@H](CN(C)S(=O)(=O)c1ccc(F)cc1)[C@@H](C)CN([C@H](C)CO)S2(=O)=O | i
C[C@@H]1CN([C@H](C)CO)S(=O)(=O)c2ccc(C3=CCCCC3)cc2O[C@@H]1CN(C)C(=O)Nc1ccc2c(c1)OCO2 | i
CS(=O)(=O)N1Cc2cc(C(=O)NCC3CCCCC3)nc(-c3cccc(-c4cccnc4)c3)c2[C@@H]1CCO | i
O=C(C[C@H]1CC[C@@H](NC(=O)C2CCC2)[C@H](CO)O1)NCc1ccncc1 | i
C[C@@H]1CN([C@@H](C)CO)S(=O)(=O)c2ccc(-c3ccccc3)cc2O[C@@H]1CN(C)C(=O)Cc1ccccc1 | i
Cc1noc(C)c1NC(=O)Nc1ccc2c(c1)CC(=O)N([C@@H](C)CO)C[C@@H](C)[C@H](CN(C)Cc1ccc(Cl)c(Cl)c1)O2 | i
O=C(CCN1CCCCC1)N[C@@H]1CC[C@@H](CCNC(=O)c2cc(Cl)cc(Cl)c2)O[C@@H]1CO | i
C[C@@H]1CN([C@H](C)CO)C(=O)c2cc(NS(=O)(=O)c3cn(C)cn3)ccc2O[C@@H](C)CCCCO[C@@H]1CN(C)S(=O)(=O)c1ccccc1 | i
C[C@@H]1CN([C@@H](C)CO)S(=O)(=O)c2ccc(C#Cc3ccccn3)cc2O[C@H]1CN(C)C | i
C[C@H](NC(=O)[C@H]1[C@H](CO)[C@H]2Cn3c(cccc3=O)[C@H]2N1CC1CC1)c1ccccc1 | i
CC(C)NC(=O)N(C)C[C@H]1Oc2ncc(-c3ccc(C(=O)N(C)C)cc3)cc2C(=O)N([C@H](C)CO)C[C@@H]1C | i
C[C@H](O)C#Cc1cnc2c(c1)C(=O)N([C@@H](C)CO)C[C@@H](C)[C@H](CN(C)CC1CCCC1)O2 | i
O=C(CCN1CCCCC1)N[C@H]1CC[C@@H](CCNS(=O)(=O)c2ccc(F)cc2)O[C@@H]1CO | i
C[C@H](CO)N1C[C@H](C)[C@@H](CN(C)CC2CC2)Oc2ccc(NC(=O)C3CC3)cc2CC1=O | i
C[C@H]1CN([C@@H](C)CO)C(=O)c2cc(-c3ccncc3)cnc2O[C@@H]1CN(C)C(=O)c1ccc(F)cc1 | i
Cc1noc(C)c1NC(=O)Nc1ccc2c(c1)C(=O)N([C@@H](C)CO)C[C@H](C)[C@@H](CN(C)C)OCCCC[C@H](C)O2 | i
CC(=O)N1[C@@H]2c3ccc(-c4cccnc4)c(=O)n3C[C@@H]2[C@@H](CO)[C@@H]1C(=O)NCc1ccccc1Cl | i
CC(C)NC(=O)N(C)C[C@H]1Oc2c(NC(=O)c3cnccn3)cccc2C(=O)N([C@@H](C)CO)C[C@H]1C | i
N#C[C@H]1[C@@H](c2ccc(-c3ccccc3)cc2)[C@@H](CO)N1C(=O)Cc1ccncc1 | i
C[C@H](CO)N1C[C@H](C)[C@@H](CN(C)C(=O)CN2CCOCC2)Oc2ncc(C#CCN(C)C)cc2C1=O | i
C[C@@H]1CN([C@H](C)CO)C(=O)c2cc(C#Cc3ccccc3)cnc2O[C@H]1CN(C)C(=O)c1ccccc1F | i
C[C@H]1CN([C@@H](C)CO)C(=O)Cc2cc(NC(=O)Cn3cnnn3)ccc2O[C@@H]1CN(C)Cc1ccc(C(=O)O)cc1 | i
C[C@@H]1CN([C@@H](C)CO)C(=O)c2ccccc2-c2ccccc2CO[C@@H]1CN(C)C(=O)CCN(C)C | i
O=C(C[C@@H]1CC[C@@H]2[C@H](COC[C@@H](O)CN2Cc2cccc(-c3ccncc3)c2)O1)N1CCOCC1 | i
COC(=O)C[C@H]1CC[C@@H]2[C@H](COc3ccc(NS(C)(=O)=O)cc3C(=O)N2C)O1 | i
Cc1noc(C)c1NC(=O)Nc1ccc2c(c1)C(=O)N([C@H](C)CO)C[C@H](C)[C@@H](CN(C)C(=O)Nc1ccc(C(F)(F)F)cc1)OCCCC[C@@H](C)O2 | i
O=C(CC(F)(F)F)N1C[C@H]2[C@@H](c3ccccc31)[C@H](CO)N2Cc1cccnc1 | i
COc1ccccc1CNC(=O)C[C@@H]1C[C@H]2c3cc(NS(C)(=O)=O)ccc3O[C@H]2[C@H](CO)O1 | i
C[C@@H](NC(=O)N(C)C[C@@H]1OCc2ccccc2-c2ccccc2C(=O)N([C@@H](C)CO)C[C@@H]1C)c1ccccc1 | i

Retrieved by compound from the entries so far:
SMILES | FGF22 binding
C[C@H]1CN([C@@H](C)CO)C(=O)CCCn2cc(nn2)CO[C@@H]1CN(C)Cc1cccc(C(=O)O)c1 | +
Cc1noc(C)c1NC(=O)Nc1ccc2c(c1)C(=O)N([C@@H](C)CO)C[C@H](C)[C@@H](CN(C)C)OCCCC[C@H](C)O2 | i
Cc1noc(C)c1NC(=O)Nc1ccc2c(c1)C(=O)N([C@H](C)CO)C[C@H](C)[C@@H](CN(C)C(=O)Nc1ccc(C(F)(F)F)cc1)OCCCC[C@@H](C)O2 | i
O=C(CCN1CCCCC1)N[C@H]1CC[C@@H](CCNS(=O)(=O)c2ccc(F)cc2)O[C@@H]1CO | i

Carrying on:
SMILES | FGF22 binding
COc1cccc(C#Cc2ccc3c(c2)O[C@H](CN(C)C(C)=O)[C@@H](C)CN([C@@H](C)CO)S3(=O)=O)c1 | i
C[C@@H]1CN([C@H](C)CO)C(=O)c2cc(NC(=O)c3ccncc3)ccc2O[C@@H](C)CCCCO[C@@H]1CN(C)Cc1ccccc1 | i
C[C@H]1CN([C@@H](C)CO)S(=O)(=O)c2ccc(C#CCN(C)C)cc2O[C@@H]1CN(C)C(=O)CC1CC1 | i
CCC(=O)Nc1ccc2c(c1)C(=O)N(C)[C@H]1CC[C@H](CC(=O)NCC3CC3)O[C@H]1CO2 | i
C[C@@H]1CN([C@@H](C)CO)C(=O)c2cccc(NC(=O)CCCCCC(=O)Nc3ccccc3N)c2O[C@@H]1CN(C)S(=O)(=O)c1cn(C)cn1 | i
CCNC(=O)[C@H]1[C@H](CO)[C@H]2Cn3c(ccc(-c4cccnc4)c3=O)[C@@H]1N2Cc1ccccc1 | i
COCCNC(=O)[C@H]1[C@H](CO)[C@H]2Cn3c(ccc(-c4ccccc4F)c3=O)[C@H]2N1C(=O)C1CC1 | i
C[C@@H]1CN([C@H](C)CO)S(=O)(=O)c2ccc(C#Cc3ccccc3)cc2O[C@@H]1CN(C)CC1CC1 | i
C[C@@H]1CN([C@@H](C)CO)C(=O)c2cc(NC(=O)C3CCCCC3)ccc2O[C@@H](C)CCCCO[C@H]1CN(C)Cc1ccc(C(F)(F)F)cc1 | i
CCC(=O)Nc1ccc2c(c1)C(=O)N(C)C[C@@H](OC)[C@H](C)CN(Cc1cccnc1)[C@H](C)CO2 | i
OC[C@H]1[C@@H](c2ccc(Br)cc2)[C@@H]2CN(Cc3ccccn3)CCCCN12 | i
C[C@@H]1CN([C@@H](C)CO)S(=O)(=O)c2ccc(C#Cc3ccc(F)cc3)cc2O[C@H]1CN(C)C(=O)NC1CCCCC1 | i
COc1ccc(-c2ccc3c(c2)O[C@@H](CN(C)C(=O)c2ccccc2F)[C@@H](C)CN([C@H](C)CO)S3(=O)=O)cc1 | i
C[C@@H]1CN([C@H](C)CO)C(=O)Cc2cc(NS(=O)(=O)c3cccs3)ccc2O[C@H]1CN(C)Cc1ccc2c(c1)OCO2 | i
C[C@@H]1CN([C@H](C)CO)C(=O)c2cc(NC(=O)Cc3ccccc3)ccc2O[C@H]1CN(C)Cc1ccc2c(c1)OCO2 | i
COc1ccc(CN(C)C[C@@H]2Oc3c(NC(=O)Nc4ccc(C(F)(F)F)cc4)cccc3C(=O)N([C@@H](C)CO)C[C@@H]2C)cc1 | i
COCC(=O)N[C@H]1CC[C@H](CC(=O)NCc2ccccc2OC)O[C@@H]1CO | i
O=C(C[C@@H]1C[C@H]2c3cc(NC(=O)Nc4ccc(C(F)(F)F)cc4)ccc3O[C@H]2[C@H](CO)O1)NCc1ccc2c(c1)OCO2 | i
CO[C@H]1CN(C)C(=O)c2cc(NC(=O)Nc3ccccc3Cl)ccc2OC[C@@H](C)NC[C@H]1C | i
COc1ccc(S(=O)(=O)N(C)C[C@@H]2OCCCC[C@@H](C)Oc3ccc(NC(=O)CCCN(C)C)cc3C(=O)N([C@H](C)CO)C[C@@H]2C)cc1 | i

The closing 4 compounds of the section above open the next one:
SMILES | FGF22 binding
COCC(=O)N[C@H]1CC[C@H](CC(=O)NCc2ccccc2OC)O[C@@H]1CO | i
O=C(C[C@@H]1C[C@H]2c3cc(NC(=O)Nc4ccc(C(F)(F)F)cc4)ccc3O[C@H]2[C@H](CO)O1)NCc1ccc2c(c1)OCO2 | i
CO[C@H]1CN(C)C(=O)c2cc(NC(=O)Nc3ccccc3Cl)ccc2OC[C@@H](C)NC[C@H]1C | i
COc1ccc(S(=O)(=O)N(C)C[C@@H]2OCCCC[C@@H](C)Oc3ccc(NC(=O)CCCN(C)C)cc3C(=O)N([C@H](C)CO)C[C@@H]2C)cc1 | i
C[C@@H]1CCCCO[C@@H](CN(C)Cc2ccc(C(=O)O)cc2)[C@H](C)CN([C@H](C)CO)C(=O)c2cc(NS(=O)(=O)c3cccs3)ccc2O1 | i
COc1ccccc1C(=O)Nc1ccc2c(c1)C(=O)N(C)C[C@@H](OC)[C@H](C)CN(C(C)=O)[C@H](C)CO2 | i
O=C(C[C@@H]1C=C[C@@H](NC(=O)C2CCOCC2)[C@H](CO)O1)NCC1CCCCC1 | i
COc1ccc(CN2[C@H](CO)[C@H]3c4ccccc4NC[C@H]32)cc1 | i
C[C@@H]1CN([C@@H](C)CO)C(=O)Cc2cc(NC(=O)Nc3ccccc3)ccc2O[C@@H]1CN(C)C(=O)NC1CCCCC1 | i
C/C=C/c1cnc2c(c1)C(=O)N([C@@H](C)CO)C[C@H](C)[C@@H](CN(C)Cc1cccc(C(=O)O)c1)O2 | i
O=C(N[C@H]1CC[C@@H](CCn2cc(C3(O)CCCC3)nn2)O[C@@H]1CO)C1CCC1 | i
CNC[C@@H]1Oc2ccc(NS(=O)(=O)c3ccc(OC)cc3)cc2C(=O)N([C@H](C)CO)C[C@H]1C | i
O=C(N[C@@H]1CC[C@@H](CCNS(=O)(=O)c2ccccc2)O[C@@H]1CO)c1cccnc1 | i
CCCNC(=O)Nc1ccc2c(c1)C(=O)N(C)C[C@@H](OC)[C@H](C)CN(Cc1cncnc1)[C@@H](C)CO2 | i
C[C@H]1CN([C@@H](C)CO)S(=O)(=O)c2ccc(C#CC3CC3)cc2O[C@H]1CN(C)C(=O)c1cnccn1 | i
COc1ccccc1CN1[C@@H]2c3cccc(=O)n3C[C@@H]2[C@@H](CO)[C@@H]1C(=O)NCCc1ccncc1 | i
CCC(=O)N[C@@H]1C=C[C@@H](CC(=O)NCC2CCCCC2)O[C@H]1CO | i

Compound activity deposited in PubChem by Broad Institute.
